Assay outcomes deposited in PubChem BioAssay by National Center for Advancing Translational Sciences (NCATS).
AmpC nodet inh – blocks E. coli AmpC beta-lactamase in absence of detergent | hit rate 1.8% among 71,000 | AmpC nitrocefin hydrolysis, absorbance 480 nm, no detergent; potencies from a single point are estimates | P00811 | Potency, µM (top dose mostly 28.7 µM), inactives show top-dose activity change, negative = inhibition; active = falling curve, for most hits resting on a single point; inconclusive = weak or doubtful change; inactive = flat or rising curve; also: % of control where 0% means no effect; about half of the hits show no inhibition at the top dose; a quarter of the inactives give rising signals
Target sequence (P00811 whole entry, looked up): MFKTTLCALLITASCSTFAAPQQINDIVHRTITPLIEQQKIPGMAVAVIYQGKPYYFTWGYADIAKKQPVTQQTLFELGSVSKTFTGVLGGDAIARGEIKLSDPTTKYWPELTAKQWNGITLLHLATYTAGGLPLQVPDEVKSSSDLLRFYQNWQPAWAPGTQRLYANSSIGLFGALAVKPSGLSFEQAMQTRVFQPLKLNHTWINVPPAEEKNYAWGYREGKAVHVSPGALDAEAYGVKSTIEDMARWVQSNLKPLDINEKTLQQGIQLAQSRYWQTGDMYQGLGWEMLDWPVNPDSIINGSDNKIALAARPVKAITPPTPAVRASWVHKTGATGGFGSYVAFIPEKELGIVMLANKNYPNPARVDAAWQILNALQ
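AmpC, 20 mM phosphate pH 7.0; 15 min cpd preinc, RT; start with nitrocefin (800 uM stock); A480 kinetic read, 20 s intervals, 4 min. No-enzyme wells = negative control.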
Active calls of the source: *; ? = inconclusive; [ ] = another dose, or the depositor's remark. Potency is read from the fitted curve at half-maximal effect. Only part of the results is shown; rates above refer to the full screens.

SMILES | AmpC nodet inh
Cc1ccc(Cn2c(CN(C)Cc3ccccc3)nc3c2c(=O)n(C)c(=O)n3C)cc1 | 133%
NC(=S)N/N=C\c1c[nH]c2ccccc12 | 8%[5.75 µM]
Oc1ccc(CN2CCN(Cc3ccccc3)CC2)c2cccnc12 | 8%
Cc1cnc(NC(=O)CSc2nnc(CNc3ccc(F)cc3)n2CC2CCCO2)s1 (centres undefined) | 24%
COc1ccc(C(=O)Cn2nnc(-c3ccccc3F)n2)cc1 | 5%
c1ccc(Cn2c(NCc3ccco3)nc3ccccc32)cc1 | 13%
Cc1ccc(C)c(OCCCN2CCCC2)c1 | -4%
COc1cccc(Cn2c(=O)c(-c3ccc(F)c(F)c3)nc3cncnc32)c1 | 71%
CC1Cc2nc(SCC(=O)N3CCCc4ccccc43)n(C)c(=O)c2S1 (centres undefined) | 65%
COc1cc(CC(=O)OCC(=O)Nc2ccc(S(=O)(=O)N3CCCC3)cc2)cc(OC)c1OC | 25%
CCOC(=O)c1ccc(OC(=O)CCCCCN=C(N)N)cc1 | 8%
Cc1ccc(-c2nnc(SCC(=O)N3CC(C)CC(C)C3)o2)cc1C (centres undefined) | 13%

Part of the list above, as labelled records:
mol: COc1cccc(Cn2c(=O)c(-c3ccc(F)c(F)c3)nc3cncnc32)c1
  AmpC nodet inh = 71%

mol: CC1Cc2nc(SCC(=O)N3CCCc4ccccc43)n(C)c(=O)c2S1 (centres undefined)
  AmpC nodet inh = 65%

mol: COc1cc(CC(=O)OCC(=O)Nc2ccc(S(=O)(=O)N3CCCC3)cc2)cc(OC)c1OC
  AmpC nodet inh = 25%

(listing goes on)
SMILES | AmpC nodet inh
COC(=O)C1=C(N)OC(C)=C(C(C)=O)C12C(=O)N(C)c1ccccc12 (centres undefined) | 8%
CCOC(=O)/C=c1\sc2n(c1=O)CCN=2 | -12%
CC(=O)Nc1ccc(NC(=O)CSC2=NCCS2)cc1 | -8%
COc1cccc(C2C=C(c3ccc(OC)cc3OC)Nc3nnnn32)c1 (centres undefined) | 36%
O=C(NCCN1CCN(c2cccc(Cl)c2)CC1)c1cccn2c(=O)c3ccccc3nc12 | 88%
O=C1CCCC/C1=C\Nc1ccc(Cl)cn1 | -11%
O=C(Cn1cnc2c(nnn2Cc2ccc(F)cc2)c1=O)NCc1ccc2c(c1)OCO2 | -15%
O=C(Cn1nnc2c(cnn2-c2ccc(F)cc2)c1=O)c1ccccc1F | 14%
CCCn1c(SCC(=O)OCc2ccccc2)nc2c1c(=O)n(C)c(=O)n2C | 49%
CC1CCN(CCNC(=O)CN(C)S(=O)(=O)c2cccc3nsnc23)CC1 | -5%
O=S(=O)(NC1c2cccc3cccc(c23)C1N1CCNCC1)c1ccccc1 (centres undefined) | 50%
COc1ccccc1NC(=O)CSc1nc2sc(C)c(C)c2c(=O)n1Cc1ccco1 | ?

A draw from above in order of count of non-hydrogen atoms, rising:
SMILES | AmpC nodet inh
CCOC(=O)/C=c1\sc2n(c1=O)CCN=2 | -12%
COc1cccc(C2C=C(c3ccc(OC)cc3OC)Nc3nnnn32)c1 (centres undefined) | 36%
O=S(=O)(NC1c2cccc3cccc(c23)C1N1CCNCC1)c1ccccc1 (centres undefined) | 50%

Additional structures
SMILES | AmpC nodet inh
COc1ccc(NC(=O)C2CC(=O)N(C)C(=Nc3ccc4c(c3)OCO4)S2)cc1 (centres undefined) | 35%
Cc1ccc(N(C(=O)c2ccc(Br)o2)C2C=CS(=O)(=O)C2)cc1 (centres undefined) | 5%
O=[N+]([O-])c1ccc([C@@H](Nc2ccccc2)c2ccc3cccnc3c2O)cc1 | -10%[5.75 µM]
CCc1[nH]nc2c1C(c1cccc(OC(=O)N3CCOCC3)c1)C(C#N)=C(N)O2 (centres undefined) | -2%
Cc1c(C(=O)NCCN2CCOCC2)oc2ccccc12 | 7%
CCc1ccc(NC(=O)CCN2C(=O)c3cccnc3C2=O)cc1 | -5%
COc1ccccc1N(CC(=O)NC(C)(C)C)C(=O)Cn1nnc(-c2ccc(C)o2)n1 | 63%
COc1ccc(NC(=O)N2CC[C@@]3(CCCN(C(=O)c4ccc(OC)cc4)C3)C2)cc1 | 45%
COc1ccc2cc3cc(C(=O)NCC4CCCO4)oc3nc2c1 (centres undefined) | 19%
Cc1nn(C)c(C)c1S(=O)(=O)NCc1cccs1 | -23%
COc1ccc(S(=O)(=O)N2CCN(Cc3cccc(Cl)c3)CC2)cc1 | 37%
Cc1cc(C)n(-c2nc3c(c(=O)[nH]c(=O)n3C)n2CC(O)COc2ccccc2C)n1 (centres undefined) | 69%
O=C(O)[C@@H]1CCCN1 | -2%[5.75 µM]
O=C(NCc1ccco1)[C@@H]1CSC2c3ccccc3C(=O)N21 (some centres undefined) | 0%
Cc1sc2ncnc(OCC(=O)c3ccc(S(=O)(=O)N4CCCC4)cc3)c2c1C | 32%
Cc1ccc(Cl)cc1N1CCN(C(=O)Cn2ccc3ccccc3c2=O)CC1 | 23%
Cc1cccc2cc(CN(Cc3cccs3)Cc3nnnn3Cc3ccccc3)c(=O)[nH]c12 | 43%
COc1ccc(CCNC(=O)CCCCn2c(=O)[nH]c3ccccc3c2=O)cc1OC | 3%
CCc1c(C)c2c(C)[nH]nc2oc1=O | -3%
CCOC(=O)N1CCC(NC(=O)c2ccc3c(c2)N(CC)CCS3)CC1 | 12%
Cc1ccccc1Nc1nnc(SCC(=O)NC(=O)NCc2ccco2)s1 | ?
O=C(Cn1cc2c(n1)CCCCC2)NC1CCN(Cc2ccccc2)CC1 | 1%
N#Cc1ccc(CN2CCC3(CC2)CCN(C(=O)c2cc(C(F)(F)F)cc(C(F)(F)F)c2)CC3)cc1 | 12%
CCSc1nc2cc(OC)c(OC)cc2c(=O)n1CC | 62%
O=C(CSc1nc2ccsc2c(=O)n1NC(=O)c1ccccc1)Nc1nccs1 | -19%
CC(=O)c1cc2c(cc1NS(=O)(=O)c1ccc(C)cc1)OCCO2 | 10%
COc1ccccc1C1C(C(N)=O)=C(C)Nc2nc(-c3ccccc3Cl)nn21 (centres undefined) | 20%
Fc1cccc(NCc2cn3ccccc3n2)c1 | -3%
CCCCn1c(S(=O)(=O)O)nc2ccccc21 | -5%
COc1ccc(-c2oc3ccc(C)cc3c(=O)c2O)cc1OC | 3%
CCOC(=O)C1=C(C)N(C)C(=O)NC1c1ccccc1OC (centres undefined) | 14%
C(=C\c1ccccc1)/CSc1nnc(-c2ccncc2)n1Cc1ccco1 | 64%
COc1ccc(NCc2c(O)ccc3ccccc23)cc1 | -11%[5.75 µM]
Cc1noc(C)c1S(=O)(=O)N1CCN(Cc2ccc3c(c2)OCO3)CC1 | 66%
Cc1cccc2cc(CN(CC3CCCO3)C(c3nnnn3Cc3ccco3)C(C)C)c(=O)[nH]c12 (centres undefined) | 87%
CCN(CC)S(=O)(=O)c1ccc(OC(C)C)nc1 | -2%

5 records picked at random from the list so far:
SMILES | AmpC nodet inh
CCN(CC)S(=O)(=O)c1ccc(OC(C)C)nc1 | -2%
CCCCn1c(S(=O)(=O)O)nc2ccccc21 | -5%
COc1ccccc1C1C(C(N)=O)=C(C)Nc2nc(-c3ccccc3Cl)nn21 (centres undefined) | 20%
COc1ccc(NCc2c(O)ccc3ccccc23)cc1 | -11%[5.75 µM]
O=C(CSc1nc2ccsc2c(=O)n1NC(=O)c1ccccc1)Nc1nccs1 | -19%

Additional records
SMILES | AmpC nodet inh
CCN1CCN(C(=O)Cc2coc3cc(C)cc(C)c23)CC1 | 14%
Cc1ccc(S(=O)(=O)Cc2ccc(C(=O)NCCCN3CCN(C)CC3)o2)cc1 | 0%
CCCC(=O)Nc1ccc(N2CCN(C(=O)CCC)CC2)cc1 | -5%
O=S(=O)(c1ccccc1)c1nc(-c2ccco2)oc1N1CCOCC1 | 10%
Clc1ccccc1-c1nnc2sc(C3COc4ccccc4O3)nn12 (centres undefined) | -22%
CCc1cccc(C)c1NC(=O)CSc1nnc(-c2cc3cc(Br)ccc3o2)n1CC | 22%
O=c1cc(-c2ccc(O)c(O)c2)oc2cc(O[C@@H]3O[C@@H](CO)[C@@H](O)[C@@H](O)[C@H]3O)cc(O)c12 | -10%
Cc1cccc(OCC(O)CN2C(C)(C)CC(O)CC2(C)C)c1C (centres undefined) | 15%
c1ccc(N2CC[N+]3(CCCC3)CC2)nc1 | -7%
CCOC(=O)c1c(C)c(C(=O)NCc2cccnc2)c(C)n1C | 24%
Cc1sc2ncnc(SCC#N)c2c1C | 3%
COc1ccc(CCNC(=O)C2CC2)cc1OC | 2%
C=CCn1c(-c2ccccc2)c[nH]c1=S | -2%
NS(=O)(=O)c1cc2c(cc1Cl)NC=NS2(=O)=O | 4%
O=C(Nc1ccc2c(c1)OCO2)c1c(F)c(F)c(F)c(F)c1F | -6%
CCOC(=O)c1ccoc1CSCc1ccc(C(=O)OC)o1 | 23%
O=c1[nH]c(NCc2ccccc2)nc2c1CCCC2 | -4%
CCSc1nnc(NC(=O)CSc2nc3c(c(=O)n2-c2ccccc2OC)SCC3)s1 | 15%
OC(COc1ccc2ccccc2c1)CN1CCN(c2ccc(F)cc2)CC1 (centres undefined) | 23%
O=C(O)CSCC(=O)c1ccccc1 | -9%
COC(=O)C1CCN(C(=O)c2c(-c3ccccc3Cl)noc2C)CC1 | 9%
Cc1sc2c(c1C)CN(Cc1ccco1)CN2C(=O)c1ccccc1 | -1%
Nc1ccc(O)cc1 | ?
C[N+]1(C)CCO[C@@](O)(c2ccc(-c3ccc([C@]4(O)C[N+](C)(C)CCO4)cc3)cc2)C1 | -6%
O=C(COC(=O)c1ccccn1)Nc1cccc(Cl)c1 | -3%
Cc1cc(-n2c(C)cc(C(=O)CSc3nnnn3-c3ccc(Cl)cc3)c2C)no1 | ?
CS(=O)(=O)Nc1cccc(-c2ccc3ncnc(NCc4cccs4)c3c2)c1 | 6%
O=C(O)CCSCc1ccccc1 | 1%[5.75 µM]
COc1cccc(-c2nc(NCCN3CCOCC3)c3ccccc3n2)c1 | 63%
[O-][n+]1ccc(C2CC2)cc1 | -8%
Cc1ccc(C(=O)C2=C(O)C(=O)N(CCCn3ccnc3)C2c2ccc(OC(C)C)cc2)o1 (centres undefined) | 0%
CO[C@H]1[C@@H](OC(N)=O)[C@H](O)[C@@H](Oc2ccc3c(O)c(NC(=O)c4ccc(O)c(CC=C(C)C)c4)c(=O)oc3c2C)OC1(C)C | 12%[12.8 µM]
COc1ccc(N2C(=O)C(Cl)=C(Nc3c(C)n(C)n(-c4ccccc4)c3=O)C2=O)cc1 | 25%
CC1=C(C(=O)OCC(C)C)C23C(=O)c4ccccc4C2(O1)OC(N)=C3C#N (centres undefined) | 6%
Cn1c(=O)c2[nH]cnc2n(C)c1=O.[CH2-][C@H](Cc1cccc2cc(C(=O)O)c(=O)oc12)OC.[Hg].[OH-] | 1%[5.75 µM]
N#CC(C#N)=C(N)/C(C#N)=C/c1ccc(O)cc1 | -14%

The closing seven compounds of the section above come first, to join the parts:
SMILES | AmpC nodet inh
[O-][n+]1ccc(C2CC2)cc1 | -8%
Cc1ccc(C(=O)C2=C(O)C(=O)N(CCCn3ccnc3)C2c2ccc(OC(C)C)cc2)o1 (centres undefined) | 0%
CO[C@H]1[C@@H](OC(N)=O)[C@H](O)[C@@H](Oc2ccc3c(O)c(NC(=O)c4ccc(O)c(CC=C(C)C)c4)c(=O)oc3c2C)OC1(C)C | 12%[12.8 µM]
COc1ccc(N2C(=O)C(Cl)=C(Nc3c(C)n(C)n(-c4ccccc4)c3=O)C2=O)cc1 | 25%
CC1=C(C(=O)OCC(C)C)C23C(=O)c4ccccc4C2(O1)OC(N)=C3C#N (centres undefined) | 6%
Cn1c(=O)c2[nH]cnc2n(C)c1=O.[CH2-][C@H](Cc1cccc2cc(C(=O)O)c(=O)oc12)OC.[Hg].[OH-] | 1%[5.75 µM]
N#CC(C#N)=C(N)/C(C#N)=C/c1ccc(O)cc1 | -14%
CCOC(=O)c1c(C)c(P(=S)(N2CCOCC2)N2CCOCC2)n(C)c1C | 99%
CCOc1ccccc1C(=O)NC1CCN(Cc2nnnn2C2CCCC2)CC1 | 82%
COc1cccc(-c2cc(=O)c3cc(O)ccc3o2)c1 | 13%
O=C(NCc1ccccn1)Nc1cccc(Cl)c1 | -7%
O=C(O)CCSC1=NCCN1 | -3%[5.75 µM]
C[C@H]1CC[C@]2(OC1)O[C@@H]1C[C@@H]3[C@@H]4CC[C@H]5C[C@@H](O)CC[C@]5(C)[C@@H]4CC(=O)[C@@]3(C)[C@H]1[C@@H]2C | -5%[12.8 µM]
Cc1onc(-c2ccccc2)c1C(=O)Nc1ccccc1N1CCOCC1 | 58%
COc1ccc2c(Cl)c(C(N)=O)sc2c1 | -14%
COCCNC(=O)C(c1ccco1)N(C(=O)Cn1nnc2ccccc21)c1cccc(C)c1C (centres undefined) | 87%
